Vaccinia inh – blocks a specific stage of Vaccinia orthopoxvirus infection | AID 1053133 | Vaccinia-infected cells, mCherry/Venus stage reporter fluorescence; stronger effect = lower value; some inactives read as strong as hits | activity change (mCherry), % (concentration not given with the values) | 0.01% of 89,000 active;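 active = mCherry past -33% and 40 or more points under the early reporter, replicates agreeing; inconclusive = past -33% without that gap or agreement; tested in A549 cells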;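 also: scaled between vehicle wells and reference inhibitor wells; 23 nL library stock went into each well; one replicate is shown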
Vaccinia inh Venus – recorded beside Vaccinia inh, whose call it bears; activity change (Venus), %; measured here: Venus reporter, other viral stage;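 negative = less Venus signal; first of two replicates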
Active calls of the source: *; ? = inconclusive; . = not tested or not shown. The list is partial; count on the stated rates, not on these rows.

SMILES	Vaccinia inh	Vaccinia inh Venus
COc1cccc(NC(=O)N2C[C@@H](O)COC[C@H]3O[C@H](CC(=O)NC4Cc5ccccc5C4)CC[C@@H]32)c1	-5	-5
CS(=O)(=O)Nc1ccc2c(c1)[C@@H]1C[C@H](CC(=O)NCc3ccccc3)O[C@H](CO)[C@@H]1O2	0	1
Cc1noc(C)c1S(=O)(=O)Nc1ccc2c(c1)C(=O)N([C@H](C)CO)C[C@H](C)[C@@H](CN(C)C(=O)C1CCCCC1)OCCCC[C@H](C)O2	-3	-13
C[C@@H]1CCCCO[C@@H](CN(C)S(=O)(=O)c2cccs2)[C@@H](C)CN([C@@H](C)CO)C(=O)c2cc(NC(=O)Nc3ccc(F)cc3)ccc2O1	29	26
C/C=C/c1cnc2c(c1)C(=O)N([C@H](C)CO)C[C@H](C)[C@@H](CN(C)S(=O)(=O)c1ccc(C)cc1)O2	-18	-23
Cc1noc(C)c1NC(=O)Nc1ccc2c(c1)C(=O)N([C@@H](C)CO)C[C@H](C)[C@@H](CN(C)S(=O)(=O)c1c(C)noc1C)OCCCC[C@@H](C)O2	28	25
O=C(CN1CCOCC1)N[C@H]1CC[C@H](CCNC(=O)C2CCC2)O[C@@H]1CO	0	-1
CCCNC(=O)N(C)C[C@@H]1Oc2ncc(C#Cc3ccncc3)cc2C(=O)N([C@@H](C)CO)C[C@H]1C	-2	-5
CC=Cc1ccc2n(c1=O)C[C@H]1[C@H](CO)[C@@H](C(=O)Nc3ccc(-c4ccccc4)cc3)N(C(C)=O)[C@@H]21 (mixture of isomers)	-13	-4
CC(C)NC(=O)Nc1ccc2c(c1)CC(=O)N([C@H](C)CO)C[C@@H](C)[C@H](CN(C)S(C)(=O)=O)O2	14	6
C[C@@H]1CN([C@H](C)CO)C(=O)c2cc(-c3ccc(C#N)cc3)cnc2O[C@H]1CN(C)CC1CCOCC1	7	6
C[C@@H]1CN([C@@H](C)CO)C(=O)Cc2cc(NC(=O)CCC(F)(F)F)ccc2O[C@@H]1CN(C)Cc1ccc(-c2ccccc2)cc1	?	.
CO[C@@H]1CN(C)C(=O)c2ccc(NC(=O)Nc3ccc4c(c3)OCO4)cc2OC[C@@H](C)N(C(C)=O)C[C@H]1C	28	18
O=C(C[C@H]1C[C@H]2c3cc(NC(=O)c4ccc5c(c4)OCO5)ccc3O[C@H]2[C@H](CO)O1)NCCc1ccccc1	9	10
CC(C)NC(=O)N1CC2(C1)[C@@H](c1ccccc1)[C@@H](CO)N2C(=O)C1CCCCC1	-3	0
C[C@@H]1CN([C@@H](C)CO)C(=O)c2cccc(NC(=O)c3ccncc3)c2O[C@@H]1CN(C)C(=O)Nc1cccc2ccccc12	11	8
C[C@@H]1CN([C@H](C)CO)C(=O)Cc2cc(NC(=O)CCCCCC(=O)Nc3ccccc3N)ccc2O[C@@H]1CN(C)Cc1ccncc1	1	0
C[C@@H]1CN([C@@H](C)CO)C(=O)c2cc(NS(C)(=O)=O)ccc2O[C@H]1CN(C)C	8	2
C[C@H]1CN([C@@H](C)CO)C(=O)c2cc(C#Cc3ccccn3)cnc2O[C@H]1CN(C)C(=O)c1ccccn1	18	7
CO[C@H]1CN(C)C(=O)c2ccc(NC(C)=O)cc2OC[C@@H](C)N(C(=O)C2CCOCC2)C[C@@H]1C	5	2
O=C(Cc1ccccn1)N1CC(=O)N2[C@@H](CO)[C@@H](c3ccc(C#CCC4CCCC4)cc3)[C@@H]2C1	-26	-16
CS(=O)(=O)Nc1ccc2c(c1)[C@@H]1C[C@H](CC(=O)NCc3cccnc3)O[C@@H](CO)[C@@H]1O2	-2	1
O=C(C[C@@H]1CC[C@@H]2[C@H](COC[C@H](O)CN2C(=O)c2cccnc2)O1)NCc1ccccc1	6	5
CC(C)NC(=O)Nc1ccc2c(c1)CC(=O)N([C@@H](C)CO)C[C@H](C)[C@H](CN(C)S(=O)(=O)c1cn(C)cn1)O2	7	11
CNC[C@H]1OCCCC[C@@H](C)Oc2ccc(NC(=O)Nc3ccc(F)cc3)cc2C(=O)N([C@@H](C)CO)C[C@@H]1C	-10	-2
O=C(C1CCC1)N1CC(=O)N2[C@H](CO)[C@@H](c3ccc(Br)cc3)[C@@H]2C1	19	38
C[C@@H]1CN([C@H](C)CO)S(=O)(=O)c2ccc(C#CC(C)(C)O)cc2O[C@@H]1CN(C)Cc1ccc(F)cc1	?	.
Cc1ccc(S(=O)(=O)Nc2ccc3c(c2)C(=O)N([C@H](C)CO)C[C@H](C)[C@@H](CN(C)C(=O)Nc2ccc(F)cc2)OCCCC[C@H](C)O3)cc1	-11	-21
C[C@H]1CN([C@@H](C)CO)S(=O)(=O)c2ccc(C#CC3CC3)cc2O[C@H]1CN(C)S(C)(=O)=O	4	-4
CCCN(C)C[C@@H]1Oc2cc(C#CC3(O)CCCC3)ccc2S(=O)(=O)N([C@H](C)CO)C[C@@H]1C	-9	-8
COCC(=O)Nc1ccc2c(c1)[C@@H]1C[C@H](CC(=O)NCc3ccc4c(c3)OCO4)O[C@H](CO)[C@@H]1O2	6	7
CN1[C@@H]2c3ccc(-c4ccccc4)c(=O)n3C[C@@H]2[C@@H](CO)[C@@H]1C(=O)Nc1ccccc1	-6	-5
C[C@H]1CN([C@@H](C)CO)C(=O)Cc2cc(NC(=O)Nc3ccc4c(c3)OCO4)ccc2O[C@H]1CN(C)C(=O)Nc1cccc2ccccc12	18	7
C[C@@H]1CN([C@@H](C)CO)C(=O)CCCn2cc(nn2)CO[C@@H]1CN(C)C(=O)Nc1ccc(-c2cccs2)cc1	-3	-2
C[C@H](CO)N1C[C@H](C)[C@H](CN(C)S(=O)(=O)c2cccc(F)c2)Oc2ncc(/C=C/c3ccccc3)cc2C1=O	-32	-24
C[C@@H]1CN([C@H](C)CO)C(=O)c2cc(C#CC3CCCCC3)cnc2O[C@@H]1CN(C)S(C)(=O)=O	9	4
C[C@@H]1CN([C@H](C)CO)C(=O)c2cc(-c3ccc(C#N)cc3)cnc2O[C@@H]1CN(C)C(=O)CC1CC1	0	6
C[C@@H](NC(=O)C[C@H]1C[C@@H]2c3cc(NS(C)(=O)=O)ccc3O[C@@H]2[C@H](CO)O1)c1ccccc1	-2	4
C[C@@H]1CN([C@H](C)CO)C(=O)c2cc(NC(=O)CCCN(C)C)ccc2O[C@H]1CN(C)S(=O)(=O)c1ccc(Cl)cc1	-1	0
CCCc1cn(CC[C@@H]2CC[C@H](NC(=O)Cc3cccnc3)[C@@H](CO)O2)nn1	12	1
Cc1noc(C)c1S(=O)(=O)Nc1ccc2c(c1)C(=O)N([C@H](C)CO)C[C@@H](C)[C@@H](CN(C)Cc1ccc(Cl)c(Cl)c1)OCCCC[C@H](C)O2	?	.
CCCNC(=O)N1C[C@H](O)COC[C@H]2O[C@H](CC(=O)N[C@@H]3CCN(Cc4ccccc4)C3)CC[C@@H]21	5	12
C[C@H](CO)N1C[C@H](C)[C@H](CN(C)S(C)(=O)=O)Oc2ccc(NC(=O)CCN3CCOCC3)cc2CC1=O	-2	0
COCC(=O)N1[C@H](C(=O)NCc2ccccc2)[C@@H](CO)[C@@H]2Cn3c(cccc3=O)[C@@H]21	2	8
Cc1noc(C)c1NC(=O)Nc1ccc2c(c1)C(=O)N([C@@H](C)CO)C[C@@H](C)[C@H](CN(C)C(=O)Nc1ccc3c(c1)OCO3)OCCCC[C@H](C)O2	-5	-6

Structures listed so far with a Cl atom:
SMILES	Vaccinia inh	Vaccinia inh Venus
C[C@@H]1CN([C@H](C)CO)C(=O)c2cc(NC(=O)CCCN(C)C)ccc2O[C@H]1CN(C)S(=O)(=O)c1ccc(Cl)cc1	-1	0
Cc1noc(C)c1S(=O)(=O)Nc1ccc2c(c1)C(=O)N([C@H](C)CO)C[C@@H](C)[C@@H](CN(C)Cc1ccc(Cl)c(Cl)c1)OCCCC[C@H](C)O2	?	.

Continuation.
SMILES	Vaccinia inh	Vaccinia inh Venus
C[C@H](CO)N1C[C@H](C)[C@@H](CN(C)S(=O)(=O)c2ccccc2)Oc2c(NC(=O)CCCCCC(=O)Nc3ccccc3N)cccc2C1=O	-12	-10
CO[C@H](C(=O)N(C)C[C@@H]1OCc2ccccc2-c2ccccc2C(=O)N([C@@H](C)CO)C[C@H]1C)c1ccccc1	20	14
COc1ccc(S(=O)(=O)N(C)C[C@H]2Oc3c(NC(=O)Nc4ccc(C(F)(F)F)cc4)cccc3C(=O)N([C@@H](C)CO)C[C@H]2C)cc1	?	.
O=C(C[C@@H]1C[C@H]2c3cc(NC(=O)CC4CC4)ccc3O[C@H]2[C@@H](CO)O1)NCc1cc(F)ccc1F	9	7
C[C@@H]1CN([C@H](C)CO)C(=O)Cc2cc(NS(=O)(=O)c3cccs3)ccc2O[C@H]1CN(C)C(=O)Nc1ccc2c(c1)OCO2	-7	5
N#C[C@H]1[C@@H](c2ccc(C#Cc3ccccc3F)cc2)[C@H](CO)N1C(=O)C1CCC1	?	.
CO[C@@H]1CN(C)C(=O)c2cc(NS(=O)(=O)c3cccc(F)c3)ccc2OC[C@@H](C)N(C(=O)Cc2cccnc2)C[C@@H]1C	1	3
COc1ccc(CN(C)C[C@H]2OCCCC[C@@H](C)Oc3ccc(NC(=O)CCC(F)(F)F)cc3C(=O)N([C@@H](C)CO)C[C@@H]2C)cc1	-17	-11
CCCNC(=O)c1cc2c(c(-c3cccc(-c4cccc(OC)c4)c3)n1)[C@H](CCO)N([S@@](=O)C(C)(C)C)C2	-20	7
C[C@H]1CCCCO[C@H](CN(C)S(=O)(=O)c2cn(C)cn2)[C@@H](C)CN([C@@H](C)CO)C(=O)c2cc(NC(=O)CCCN(C)C)ccc2O1	22	13
N#C[C@@H]1N[C@H](CO)[C@H]1c1ccc(C2=CCCC2)cc1	3	8
C[C@@H]1CN([C@H](C)CO)C(=O)c2cc(C#CC3(O)CCCC3)cnc2O[C@H]1CN(C)C	13	8
C[C@H](CO)N1C[C@H](C)[C@@H](CN(C)Cc2ccc3c(c2)OCO3)Oc2ccc(NS(=O)(=O)c3cccs3)cc2C1=O	39	27
O=C(Cc1ccccn1)NCC[C@H]1CC[C@@H](NC(=O)Nc2ccccc2)[C@H](CO)O1	12	5
C[C@H]1CN([C@@H](C)CO)S(=O)(=O)c2ccc(-c3ccc(F)cc3)cc2O[C@H]1CN(C)CC1CC1	?	.

An excerpt of the results above, for reference:
SMILES	Vaccinia inh	Vaccinia inh Venus
C[C@H](CO)N1C[C@H](C)[C@@H](CN(C)S(=O)(=O)c2ccccc2)Oc2c(NC(=O)CCCCCC(=O)Nc3ccccc3N)cccc2C1=O	-12	-10
CO[C@H](C(=O)N(C)C[C@@H]1OCc2ccccc2-c2ccccc2C(=O)N([C@@H](C)CO)C[C@H]1C)c1ccccc1	20	14

Other compounds:
SMILES	Vaccinia inh	Vaccinia inh Venus
O=C(NCC[C@H]1CC[C@H](NS(=O)(=O)c2cccc(Cl)c2)[C@@H](CO)O1)c1cnccn1	-2	-3
C[C@H]1CN([C@@H](C)CO)C(=O)c2cc(NC(=O)NC3CCCCC3)ccc2O[C@@H]1CN(C)S(=O)(=O)c1ccc(F)cc1	2	-3
O=C(C[C@@H]1CC[C@H]2[C@@H](COC[C@H](O)CN2Cc2ccc(Oc3ccccc3)cc2)O1)N1CCN(c2ccccc2)CC1	?	.
N#C[C@H]1[C@@H](c2ccccc2-c2ccc(F)cc2)[C@@H](CO)N1C(=O)Cc1ccccc1	6	3
CN1[C@@H]2c3ccc(-c4ccccc4F)c(=O)n3C[C@@H]2[C@@H](CO)[C@@H]1C(=O)NCc1ccncc1	3	13
CC(C)NC(=O)N(C)C[C@@H]1Oc2cc(C#Cc3ccccn3)ccc2S(=O)(=O)N([C@H](C)CO)C[C@@H]1C	11	9
C[C@@H]1CN([C@@H](C)CO)C(=O)Cc2cc(NC(=O)c3ccncc3)ccc2O[C@H]1CN(C)C(=O)Nc1cccc2ccccc12	2	12
COc1ccc(NC(=O)N(C)C[C@H]2Oc3c(NC(=O)NC(C)C)cccc3C(=O)N([C@@H](C)CO)C[C@@H]2C)cc1	18	12
C[C@H]1CN([C@@H](C)CO)S(=O)(=O)c2ccc(Br)cc2O[C@@H]1CN(C)Cc1cccc(F)c1	?	.
C[C@H](CO)N1C[C@H](C)[C@@H](CN(C)Cc2ccc(C(=O)Nc3ccccc3N)cc2)Oc2c(NC(=O)C3CCOCC3)cccc2C1=O	17	9
C[C@@H]1CN([C@@H](C)CO)C(=O)c2cccc(NC(=O)C3CC3)c2O[C@H]1CN(C)C(=O)NC1CCCCC1	17	12
CN1C(=O)c2cc(NC(=O)Cc3ccccc3)ccc2OC[C@@H]2O[C@H](CC(=O)NC3CCC3)CC[C@@H]21	2	2
COc1ccc2c3c([nH]c2c1)[C@H](CO)N(Cc1ccncc1)CC31CCN(C(=O)c2cccnc2)CC1	20	15
Cc1ccc(S(=O)(=O)Nc2ccc3c(c2)C(=O)N([C@@H](C)CO)C[C@@H](C)[C@H](CN(C)S(=O)(=O)c2cccs2)O3)cc1	-6	-9
COc1ccccc1-c1cnc2c(c1)C(=O)N([C@@H](C)CO)C[C@@H](C)[C@@H](CN(C)Cc1cccnc1)O2	-18	-8
CC(=O)N(C)C[C@@H]1Oc2cc(-c3ccc(C)cc3)ccc2S(=O)(=O)N([C@H](C)CO)C[C@H]1C	6	-7
CO[C@H]1CN(C)C(=O)c2cc(NC(=O)C3CCC3)ccc2OC[C@H](C)N(CC2CCCCC2)C[C@H]1C	-4	5

Taken from above.
Result of O=C(C[C@@H]1CC[C@@H]2[C@H](COC[C@H](O)CN2C(=O)c2cccnc2)O1)NCc1ccccc1 under Vaccinia inh Venus: 5
Result of COc1ccc2c3c([nH]c2c1)[C@H](CO)N(Cc1ccncc1)CC31CCN(C(=O)c2cccnc2)CC1 under Vaccinia inh Venus: 15
